ugtP null kill – growth inhibition of ugtP-null S. aureus, primary screen, RN4220 ugtP deletion, OD600; 16 h; some inactives read as strong as hits; growth inhibition, % (no concentration beside the values); 330,000 tested, 0.54% active;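 active means z-score under -3 and OD600 up to 0.15 on both plates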;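 further: plate controls were untreated wells for no effect and antibiotic for full effect; wells of about 80 µL received 100 nL stock; the first replicate is given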
RN4220 kill – growth inhibition of S. aureus RN4220, primary screen, OD600; 16 h; inhibition, % (concentration not given with the values); 330,000 tested, 0.33% active;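 active means z-score of -3 or lower and OD600 up to 0.18 on both plates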;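 further: plate controls were untreated cells for no effect and reference antibiotic for full effect; stock transfer was 100 nL into about 80 µL; one replicate is shown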
PrP UTR inh – inhibition of PrP 5' UTR reporter expression | inhibition, % (test concentration not listed) | AID 488862, 2010 | cell-based PrP 5' UTR mRNA reporter, plate reader | 340,000 tested, 0.35% active;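 active means every replicate at 50% or more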;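 further: 0 = median of the neutral control wells; tested in H4 reporter cells; numbers are from one replicate; inactives centre near -14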
Mtb hypoxia rep – PubChem AID 1159583. 300,000 tested, 0.1% active. fluorescence inhibition, % (test concentration not listed). M. tuberculosis hypoxia-regulated fluorescent reporter, fluorescence;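 active means 35 to 45% if threefold the growth effect, above 45% if 1.5-fold the growth effect; inactive means the rest, general growth blockers included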;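 further: wells of about 50 µL received 100 nL stock; 0% = vehicle wells and 100% = reference inhibitor wells; whole bacteria with a GFP reporter of the hypoxia response; strong numbers were not always called active; many hits fall short of the cut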
Autofluor counter – flagged as autofluorescent in microsphere protease counterscreen; 360,000 tested, 3.1% active; compound autofluorescence counterscreen, microsphere flow cytometry; stronger effect = higher value; fluorescence intensity (concentration not given with the values); AID 624483;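 active means at least 3 SD above the mean of all compounds, about 16000 in these data; inconclusive means too few beads counted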;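 further: 100 nL of 1 mM stock went into each well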
BJeLR lethal – MLPCN primary cell-based screen for lethality selective to Ras in HRASV12 cells | BJeLR (HRASV12) viability, CellTiter-Glo ATP luminescence, 48 h; reference of the scale not given here | inhibition, % (test concentration not listed) | 300,000 tested, 0.17% active | AID 1554, 2009;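 active means replicate mean above 50%; inconclusive means above 50% but judged a plate artefact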;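 further: 50 nL library stock added to about 25 µL; numbers are from one replicate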
Mtb hypoxia rep growth – second read-out of Mtb hypoxia rep, no call of its own (marks repeat the call); growth inhibition, %; measured here: M. tuberculosis growth (absorbance);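 0% = vehicle and 100% = reference antibiotic; read after six days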
Active calls of the source: *; ? = inconclusive; / = no result given. Hits appear at their usual frequency; overall some 3.9% were active at least once.

SMILES | ugtP null kill | RN4220 kill | PrP UTR inh | Mtb hypoxia rep | Mtb hypoxia rep growth | Autofluor counter | BJeLR lethal
N#Cc1ccc(CN2CCN(CC(=O)Nc3ccccc3C(=O)NC3CC3)CC2)cc1 | 2 | 3.0 | -1 | 22 | 10 | 4068 | /
O=C1C2CCCN2C(c2ccc(Cl)cc2)N1c1nccs1 (configuration not stated) | -3 | 2.4 | -25 | 1 | 1 | 3652 | -13
CN(C)S(=O)(=O)c1ccc(N2CCCC2)c(C(=O)N2CCN(c3ccc([N+](=O)[O-])cc3)CC2)c1 | -2 | 0.6 | -7 | -19 | 9 | 4426 | 0
Cc1cccc2c1c(N=NC(N)=S)c(O)n2C1OC(CO)C(O)C(O)C1O (configuration not stated) | 1 | 2.2 | 8 | 9 | 8 | 3922 | -4
Cc1cn(C(C(=O)NCCCCCCCCCCC(=O)N2CCNCC2)C(C)O)nn1 (configuration not stated) | 0 | 8.6 | / | 18 | 6 | / | /
CC1CCc2sc(C(=O)NN=Cc3ccc(O)cc3)cc2C1 (configuration not stated) | 3 | 3.2 | / | -5 | 7 | / | /
CC1CCCCC1NC(=O)Cn1cc([N+](=O)[O-])ccc1=O (configuration not stated) | 2 | 2.5 | 4 | 1 | 3 | 2800 | /
CCOC(=O)C1CCN(C(=O)NS(=O)(=O)c2ccc(C)cc2)CC1 | -2 | 2.4 | -31 | 6 | 14 | 2265 | -3
CN(CC(=O)Nc1ccccc1C(F)(F)F)C(=O)c1cc2c(s1)CCCCC2 | 15 | 4.3 | -5 | 1 | -4 | 4627 | 6
CCOc1ccc(C=NNC(=O)Cc2csc(Nc3cccc(C(F)(F)F)c3)n2)cc1 | -23 | -11 | / | 9 | 14 | / | /
Cc1cccc(NC(=O)CC(C)S(=O)(=O)c2ccc3c(c2)NC(=O)CO3)c1C (configuration not stated) | 2 | 5.7 | -17 | -5 | -7 | 5128 | 2
CCOC(=O)c1c(NC(=O)CN2CCCCC2)sc2c1CCN(C(=O)OCC)C2 | 2 | -0.3 | -11 | -1 | 3 | 16067 | 3
O=C(c1ccc2c(c1)OCO2)C1CCCN(Cc2c(F)ccc(F)c2F)C1 (configuration not stated) | 9 | -0.3 | -8 | 8 | 1 | 5250 | 3
Cc1ccc(S(=O)(=O)N2CCCCC2)cc1C(=O)NCCC1=CCCCC1 | 6 | 4.7 | 0 | 5 | 2 | 4532 | -3
CCOC(=O)c1cnn(-c2ccccc2)c1NC(=O)C(F)(F)C(F)(F)C(F)(F)F | 10 | 9.6 | -18 | 8 | 3 | 3655 | 0
Cc1cc(=O)n2ccsc2n1 | 12 | 2.5 | -13 | 1 | 0 | 7489 | 10
O=C(O)CN1CCCCC1 | -3 | -1.5 | -13 | -3 | -9 | 4263 | 3
N#CCc1ccc(Oc2ccc([N+](=O)[O-])cn2)cc1 | 1 | 2.3 | -23 | 14 | 2 | 5812 | 11
O=C(/C=C/N1CCN(Cc2ccccc2)CC1)C(F)(F)F | / | / | -32 | / | / | 3416 | 4
COC(=O)[C@@]12CCCN1C(c1ccc(-c3ccc4c(c3)OCO4)c(OC)c1)C1C(=O)N(C)C(=O)C12 (some centres not stated) | -3 | 5.5 | / | 2 | 3 | / | /
CC1CCN(CCCNC(=O)C2CC(=O)N(CCc3ccccc3)C2)CC1 (configuration not stated) | 1 | 2.0 | -3 | 8 | -5 | 4451 | 0
Cn1nnc2c[n+](CC(=O)c3ccc(Cl)cc3)cc(Br)c21 | -1 | 3.6 | / | 2 | 6 | 5709 | 3
CCOC(=O)c1sc2nc(CC(C)C)c3c(c2c1N)CCC3 | / | / | -14 | / | / | 1933 | -4
O=C(NNC(=S)NC(=O)c1cccs1)c1ccc(O)cc1 | 2 | 15 | 0 | 3 | 6 | ? | /
COc1ccc(-n2c(SCC3OCCO3)nc3c(sc(=S)n3-c3ccccc3)c2=O)cc1OC | -1 | -12 | -36 | -9 | 10 | 4375 | -6

Complete entries, looked up by structure. Order of values: ugtP null kill, RN4220 kill, PrP UTR inh, Mtb hypoxia rep, Mtb hypoxia rep growth, Autofluor counter, BJeLR lethal
Entry for Cc1cccc(NC(=O)CC(C)S(=O)(=O)c2ccc3c(c2)NC(=O)CO3)c1C (configuration not stated) = 2, 5.7, -17, -5, -7, 5128, 2
Entry for CC1CCN(CCCNC(=O)C2CC(=O)N(CCc3ccccc3)C2)CC1 (configuration not stated) = 1, 2.0, -3, 8, -5, 4451, 0
Entry for CN(C)S(=O)(=O)c1ccc(N2CCCC2)c(C(=O)N2CCN(c3ccc([N+](=O)[O-])cc3)CC2)c1 = -2, 0.6, -7, -19, 9, 4426, 0
Entry for Cn1nnc2c[n+](CC(=O)c3ccc(Cl)cc3)cc(Br)c21 = -1, 3.6, /, 2, 6, 5709, 3

Other compounds
SMILES | ugtP null kill | RN4220 kill | PrP UTR inh | Mtb hypoxia rep | Mtb hypoxia rep growth | Autofluor counter | BJeLR lethal
CCOC(=O)Cc1nn(Cc2ccccc2)c(=O)c2ccccc12 | 4 | 3.0 | -35 | 2 | 16 | 3180 | 7
O=C(CCCNS(=O)(=O)c1cccc2nsnc12)NC1CCCCC1 | -7 | 1.7 | -18 | / | / | 3961 | -13
Cc1cccc(C(=O)NNC(=O)c2ccc(NS(=O)(=O)c3cccs3)cc2)c1C | 7 | 11 | -18 | 4 | 7 | 3771 | /
CON=C(C(=O)NC1C(=O)N2C(C(=O)O)=C(COC(C)=O)CSC12)c1csc(N)n1 (configuration not stated) | 100* | 100* | / | / | / | / | /
COc1ccc(CCNC(=O)COC(=O)/C=C/c2ccc3c(c2)OCO3)cc1OC | 1 | 0.9 | -18 | 0 | -2 | / | /
Cc1ccccc1-c1nc(CSc2nc3c(c(=O)[nH]2)CCC3)c(C)o1 | 8 | 10 | -7 | 11 | 3 | 4239 | -2
Nc1nc2n(n1)C(=O)CC(c1ccccc1)N2 (configuration not stated) | 7 | 2.4 | 2 | 1 | 2 | 4108 | 1
COc1ccc(S(=O)(=O)N2CCCCC2)cc1NC(=O)CCCOc1ccccc1 | 0 | -1.6 | -28 | 3 | -1 | 3794 | /
O=c1oc2ccccc2c(NCCO)c1[N+](=O)[O-] | 5 | 4.0 | -10 | 0 | -2 | 4476 | 4
CC(C)(Oc1ccc(Cl)cc1)C(=O)NCC(c1cccs1)N1CCOCC1 (configuration not stated) | 0 | 2.3 | -24 | -2 | 0 | 6242 | -3
O=C(O)c1ccccc1Nc1ccnc(C(F)(F)F)c1 | 2 | 1.3 | -19 | 0 | 7 | 3826 | 3
CC(O)C(NC=C1C(=O)OC(C)(C)OC1=O)C(=O)O (configuration not stated) | 10 | 9.5 | 9 | 11 | 1 | 3349 | 3
COCc1cc(C)nc(Nc2ccccc2C)c1C#N | -1 | 1.9 | -8 | 8 | 15 | 20149* | 3
CCCCCCCCCCOC(=O)Cn1c(COc2ccc(Cl)cc2)[n+](C)c2ccccc21 | / | / | -25 | / | / | 4183 | -7
CCOC(=O)C1(NC(=O)C2(NC(=O)CN3C(=O)c4ccccc4C3=O)CCCC2)CCCC1 | 3 | 2.2 | -13 | 13 | 2 | 3048 | /
O=C(COc1ccccc1)NCC(=O)N/N=C/c1ccccc1 | / | / | -22 | / | / | 2064 | -2
CSc1ccc(C=O)cc1 | 6 | 2.3 | 0 | 12 | 13 | 5622 | /
Cn1c(N)c(C(=O)COC(=O)CSc2ccc3ccccc3c2)c(=O)n(C)c1=O | -1 | -1.7 | -20 | 0 | 7 | 2001 | 1
CC(O)CN(Cc1ccc(Cl)cc1)CC(C)O (configuration not stated) | 0 | -0.7 | -32 | -2 | 18 | 7901 | -3
CCc1nc(SCC(=O)Nc2cccc3ccccc23)[nH]c(=O)c1C | 2 | 14 | -13 | 1 | -9 | 3523 | -6
Cc1cc(C)c2ccc(NN)nc2c1O | -4 | 4.4 | -13 | 3 | 4 | 3662 | -10
O=C1c2cccc3cccc(c23)C(=O)N1CC1CCN(CC(O)COCc2ccc3c(c2)OCO3)CC1 (configuration not stated) | 5 | 3.5 | -17 | -2 | 9 | 2531 | -9
O=C(COC(=O)c1ccc(Cl)nc1)NNC(=O)c1ccc(Cl)cc1 | 0 | 0.8 | -19 | -2 | 3 | / | -7
CCc1cc(C(=O)OC)c(NC(=O)c2cc(Br)cs2)s1 | -15 | 10 | -9 | -7 | 10 | 10795 | 2
Cc1cc2c(C)cc(=O)[nH]c2cc1NC(=O)CCl | / | / | 13 | / | / | 3351 | 17
SMILES | ugtP null kill | RN4220 kill | PrP UTR inh | Mtb hypoxia rep | Mtb hypoxia rep growth | Autofluor counter | BJeLR lethal
CN(Cc1cccc(Cl)c1Cl)C(=O)c1cc(S(=O)(=O)N2CCOCC2)ccc1F | -5 | 0.8 | -7 | -8 | -2 | 3614 | /
CC(C)[C@H](NC(=O)c1ccccc1)C(=O)N1CCc2ccccc21 | / | / | -51 | / | / | 2338 | 2
Cc1nc(-c2cccs2)ccc1C(=O)O | 6 | -10 | -16 | 10 | -6 | 4068 | 3
O=C(Nc1nnc(-c2ccccc2SCc2ccccc2F)s1)Nc1ccccc1F | -3 | 0.6 | -27 | / | / | 2449 | 0
CCOC(=O)C1(O)CSc2nc3sc(C(=O)O)c(C)c3c(=O)n21 (configuration not stated) | 16 | 16 | -1 | 3 | 8 | 2561 | 3
O=C(Nc1cccc(O)c1)c1ccc([N+](=O)[O-])cc1Cl | -13 | -1.3 | -17 | 0 | -6 | 2037 | -3
COc1c(C(=O)N2CCCC2)ccc2ccccc12 | 5 | 4.9 | -23 | 15 | 11 | 8656 | -16
CC(=NNC(=O)CCc1ccccc1)c1ccc(Br)cc1 | -7 | 1.0 | / | 0 | 1 | / | /
Cc1ccc(N2CCN(/N=C/c3cccs3)CC2)cc1 | / | / | -13 | / | / | 15070 | 4
O=C(NCc1ccc2c(c1)OCO2)C1CCCN(S(=O)(=O)c2cccnc2)C1 (configuration not stated) | 19 | 16 | 11 | -4 | 1 | 4866 | -2
O=S1(=O)[C@H]2C[C@@H]3C=C[C@@]2(CN1Cc1ccc(Cl)cc1)O3 | / | / | -1 | / | / | 3771 | -5
C/C(N)=C(/C#N)C(=O)CSc1ccc2c(c1)OCCO2 | 10 | -4.7 | -32 | / | / | 2417 | -3
Cc1ccc(NC(=O)COC(=O)Cc2ccsc2)c(C)c1 | 2 | 6.8 | -27 | -2 | -3 | 3433 | 4
Fc1ccc(NC(=S)N2CCCCC2)cc1 | -2 | -4.6 | -18 | -2 | 0 | 2370 | -1
O=C(CSc1ccc(Br)cc1)N1CCN(C(=O)c2ccco2)CC1 | 19 | -1.9 | -11 | 6 | 0 | 4621 | -3
Cc1ccc(C(=O)N/C(=C\c2cccs2)C(=O)N2CCCCCC2)cc1 | 0 | 0.4 | -6 | / | / | 4268 | -4
CC(=NNC(=S)NCc1ccccc1)c1ccc2ccccc2c1 | 0 | 20 | / | 7 | 2 | / | /
Cc1cccc(C)c1OCCCCCNCCO | 2 | 0.3 | -4 | 2 | -13 | 8813 | -3
O=C(NC(=S)Nc1ccccc1F)c1ccc(Br)o1 | 32 | 1.3 | -51 | 5 | 11 | 2251 | 5
COc1ccccc1C(CNC(=O)c1ccc(-c2ccccc2Cl)o1)N1CCCC1 (configuration not stated) | 0 | -1.4 | -11 | / | / | ? | 10
NC(=O)c1ccc(=O)n(C2OC(CO)C(O)C2O)c1 (configuration not stated) | 5 | 0.8 | 3 | 3 | 1 | 2899 | /
Cc1cc(C)n(S(=O)(=O)c2ccccc2)n1 | 4 | 3.4 | -9 | 6 | 8 | 4199 | -4
COc1ccc(C2C(Oc3ccccc3C)C(=O)N2Cc2ccc(F)cc2)cc1OC (configuration not stated) | -3 | 5.6 | 7 | 6 | 3 | 2416 | -4
Cc1c(C(=O)OCC(=O)NCc2ccc3c(c2)OCO3)cccc1[N+](=O)[O-] | 4 | 2.8 | -8 | 5 | 6 | 2118 | -2
CC(C)CCNC(=O)CC1Nc2c3ccccc3nc(=S)n2C1=O (configuration not stated) | 4 | 2.0 | -37 | 17 | 6 | 6301 | 7
CC(OC(=O)CCc1c[nH]c2ccccc12)C(=O)c1ccccc1 (configuration not stated) | 7 | 11 | -47 | -7 | -3 | 3798 | 3
COc1ccccc1NC(=O)c1ccc(NC(=O)c2nc3nccc(C)n3n2)cc1 | 9 | 1.2 | -5 | 13 | 18 | 3948 | /

Results in PrP UTR inh and RN4220 kill (2 entries from above):
compound	PrP UTR inh	RN4220 kill
NC(=O)c1ccc(=O)n(C2OC(CO)C(O)C2O)c1 (configuration not stated)	3	0.8
Cc1cc(C)n(S(=O)(=O)c2ccccc2)n1	-9	3.4

Compound activity as filed in PubChem.
